Source: PubChem (Johns Hopkins Ion Channel Center)
KCNQ2 block: KCNQ2 channel blockers in CHO-K1 cells – cell-based, FluxOR thallium flux, B-score, primary screen (AID 2156); B-score at 10 µM; hit rate 1.1% among 310,000; O88943; 20 min; hits give low values; only compounds with negative scores are shown here; some inactives read as strong as hits;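 active means fluorescence ratio B-score at most minus 3 library SDs, with starting brightness B-score within 2 library SDs, cut at about -5.5 in these data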
Target sequence (O88943 whole entry, looked up): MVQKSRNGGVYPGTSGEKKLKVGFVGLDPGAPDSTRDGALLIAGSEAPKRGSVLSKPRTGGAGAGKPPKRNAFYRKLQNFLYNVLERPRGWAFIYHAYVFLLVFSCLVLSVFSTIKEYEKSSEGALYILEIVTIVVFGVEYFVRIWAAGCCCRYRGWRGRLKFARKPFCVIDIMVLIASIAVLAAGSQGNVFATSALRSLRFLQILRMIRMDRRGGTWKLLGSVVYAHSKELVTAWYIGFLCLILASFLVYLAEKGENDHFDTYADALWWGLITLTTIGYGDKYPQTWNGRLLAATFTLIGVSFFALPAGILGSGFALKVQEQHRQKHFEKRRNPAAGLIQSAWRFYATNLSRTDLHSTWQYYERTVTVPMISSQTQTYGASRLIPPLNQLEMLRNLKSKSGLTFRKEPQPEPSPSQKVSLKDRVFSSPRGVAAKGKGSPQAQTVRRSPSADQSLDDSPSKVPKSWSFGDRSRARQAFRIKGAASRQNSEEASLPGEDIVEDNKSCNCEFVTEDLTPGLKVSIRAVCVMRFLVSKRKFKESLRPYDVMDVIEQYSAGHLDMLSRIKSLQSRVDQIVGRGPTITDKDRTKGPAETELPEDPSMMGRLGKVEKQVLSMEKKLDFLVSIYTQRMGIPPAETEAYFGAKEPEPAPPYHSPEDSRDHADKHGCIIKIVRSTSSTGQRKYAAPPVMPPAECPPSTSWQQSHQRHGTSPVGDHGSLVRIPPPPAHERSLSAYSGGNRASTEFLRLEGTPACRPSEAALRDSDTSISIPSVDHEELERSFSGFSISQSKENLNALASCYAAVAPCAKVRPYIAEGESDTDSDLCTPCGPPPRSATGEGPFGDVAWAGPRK
KCNQ2 block baseline: also measured in KCNQ2 block; calls as there; B-score; measured here: initial fluorescence intensity artifact check;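 brightness before thallium and not channel activity; 0 = typical well and far values either way flag optical interference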
* = called active by the depositor; i = inactive. This is a subset; rates above refer to the full screens.

Sample of the layout:
molecule	KCNQ2 block	KCNQ2 block baseline
CCOC(=O)COc1c(OC)cc(Cl)cc1C1Nc2ccccc2C(=O)N1c1ccccc1 (stereo not given)	-5.6*	0.63*
c1ccc(-c2onc3cc4c(cc23)OCCO4)cc1	i	-1.9
COc1cc2c(C(=O)N(C)c3cc(Cl)ccc3OC)cn(C)c(=O)c2cc1OC	i	-0.87
COC(=O)C(C)N(C(=O)c1ccc(Cl)cc1)c1c(C)cccc1C (stereo not given)	i	1.4
O=C(c1cnccn1)N1CCCC(N2CCN(c3cccc(Cl)c3)CC2)C1 (stereo not given)	i	3.8
COc1cc(Cc2cnc(N)nc2N)cc(OC)c1OC	i	-1.2
CC(C)(C)CC(=O)Nc1nnc(SCC(=O)Nc2ccccc2F)s1	i	0.72
C/C(CC(=O)NC(C)(C)C)=N\NC(N)=S	i	0.04
CCNC(=O)COC(=O)c1csc2c1CCCC2	i	1
Nc1nc(SCC(=O)c2ccc(F)cc2)n[nH]1	i	0.01
CCOc1ccc(NC(=O)c2ccc(OC)cc2)cc1	i	-0.29
CCOC(=O)c1c(NC(=O)C2c3ccccc3Oc3ccccc32)sc(C(=O)N(CC)CC)c1C	i	0.05
Cc1cc(OCC(=O)N(C)c2c(N)n(Cc3ccccc3)c(=O)[nH]c2=O)c(C(C)C)cc1Cl	i	0.01

This part in full, from the start:
molecule	KCNQ2 block	KCNQ2 block baseline
CCOC(=O)COc1c(OC)cc(Cl)cc1C1Nc2ccccc2C(=O)N1c1ccccc1 (stereo not given)	-5.6*	0.63*
c1ccc(-c2onc3cc4c(cc23)OCCO4)cc1	i	-1.9
COc1cc2c(C(=O)N(C)c3cc(Cl)ccc3OC)cn(C)c(=O)c2cc1OC	i	-0.87
COC(=O)C(C)N(C(=O)c1ccc(Cl)cc1)c1c(C)cccc1C (stereo not given)	i	1.4
O=C(c1cnccn1)N1CCCC(N2CCN(c3cccc(Cl)c3)CC2)C1 (stereo not given)	i	3.8
COc1cc(Cc2cnc(N)nc2N)cc(OC)c1OC	i	-1.2
CC(C)(C)CC(=O)Nc1nnc(SCC(=O)Nc2ccccc2F)s1	i	0.72
C/C(CC(=O)NC(C)(C)C)=N\NC(N)=S	i	0.04
CCNC(=O)COC(=O)c1csc2c1CCCC2	i	1
Nc1nc(SCC(=O)c2ccc(F)cc2)n[nH]1	i	0.01
CCOc1ccc(NC(=O)c2ccc(OC)cc2)cc1	i	-0.29
CCOC(=O)c1c(NC(=O)C2c3ccccc3Oc3ccccc32)sc(C(=O)N(CC)CC)c1C	i	0.05
Cc1cc(OCC(=O)N(C)c2c(N)n(Cc3ccccc3)c(=O)[nH]c2=O)c(C(C)C)cc1Cl	i	0.01
C=CCn1c(C)cc(-c2csc(NCC)n2)c1C	i	0.55
COC(=O)c1ccc(CSc2nncn2C)cc1	i	0.02
COc1cccc(C(=O)NCCNC(=O)c2cnccn2)c1	i	-1.4
COc1ccc(-c2nc3ccc(C(=O)NCCCN4CCOCC4)cc3nc2-c2ccc(OC)cc2)cc1	i	-0.95
CCOc1ccccc1NC(=O)CSc1nnc(CNC(=O)COc2ccc(Cl)cc2)o1	i	4.4
N#C/C(=C\c1ccccc1Cl)C(=O)NC(=O)Oc1ccccc1	i	-0.4
CCOC(=O)C(C)Sc1nc2c([nH]c3ccccc32)c(=O)n1C (stereo not given)	i	1.6
CC(C)(C)NCCCOc1ccc(Cl)cc1C(C)(C)C	i	-0.33
COC(=O)C1=C(C)N(Cc2ccc(C)cc2)C(=O)/C1=C\c1ccc(O)c(OC)c1	i	-0.06
O=C(Nc1ccc(S(=O)(=O)Nc2ncccn2)cc1)c1ccc(N2CCCC2=O)cc1	i	0.47
Cc1ccc(OCC(=O)N/N=C\c2c(C)[nH]n(-c3ccccc3)c2=O)c([N+](=O)[O-])c1	i	-0.09
Cc1c(Cl)cccc1NC(=S)NCCCN(C)C	i	-3
N#CC(c1ccc(Cl)cc1)N1CCOCC1 (stereo not given)	i	-0.3
O=C(CC12CC3CC(CC(C3)C1)C2)N1CCN(S(=O)(=O)c2cccs2)CC1	i	-3.3
CCC(CC)C1=NN2C(=N)/C(=C/c3ccc(OC(=O)c4ccco4)cc3)C(=O)N=C2S1	i	-0.75
CCc1ccc(-n2c(SCc3cc(=O)n4cc(Br)ccc4n3)nc3[nH]ncc3c2=O)cc1	i	-1
O=S(=O)(NC1CCCCC1N1CCN(c2ccccc2F)CC1)c1ccc(Cl)cc1 (stereo not given)	i	-3.4
Cc1ccc(Cl)cc1NC(=O)CCS(=O)(=O)c1cccc2nonc12	i	-2.6
CCOC(=O)Cn1nnc2c(sc3nc4c(c(-c5ccccc5)c32)CCC4)c1=O	i	-2
CCOc1ccc(CNc2cccc(SC)c2)cc1	i	-0.01
CCN(CC)C(=O)/C=C/c1ccc(OC)c(S(=O)(=O)N2CCCCC2)c1	i	-0.15
CC1=CCC2COC(c3ccc[n+](Cc4ccccc4)c3)C1C2 (stereo not given)	i	0.03
C=CCn1c(NCc2ccc(OC)cc2)nc2ccccc21	i	-0.02
Cc1ccc(C)c(NC(=O)COC(=O)CC2c3ccccc3CCN2S(=O)(=O)c2ccc(F)cc2)c1 (stereo not given)	i	-1
Nc1ccc(-n2nnnc2CN2CCOCC2)cc1	i	0.2
COc1ccccc1CCNC(=O)C(=O)NCC1OCCN1S(=O)(=O)c1ccc(C)cc1 (stereo not given)	i	-0.01
O=C(CCCN1C(=O)S/C(=C\C=C\c2ccccc2)C1=O)Nc1ccc(O)cc1	i	-1.5
COc1cccc(CCNC(=O)CCCC(=O)c2ccccc2)c1	i	-1.8
CSc1ncc(C(=O)Nc2ccccc2Cl)c(C)n1	i	0.21
Cc1ccccc1N=C1SCC(=O)N1Cc1ccccc1	i	-0.25
CC(/C=C1\SC(=S)N(NC(=O)c2cccc(O)c2)C1=O)=C\c1ccccc1	i	1.3
O=C(/C=C/c1cn(CC(O)CN2CCCCC2)c2ccccc12)c1cccs1 (stereo not given)	i	8.2
CCOC(=O)N1CCN(C(=O)c2ccc(CS(=O)(=O)c3c(Cl)cccc3Cl)o2)CC1	i	-0.01
CC(=O)c1c(C)[nH]c(C(=O)Nc2cccc(S(=O)(=O)N(C)c3ccccc3)c2)c1C	i	1.3
Cc1nc2ccc(C(=O)N3c4ccccc4CC3C)cc2s1 (stereo not given)	i	2.2
COc1ccc(CCNc2oc(Cc3cccc4ccccc34)nc2C#N)cc1OC	i	-0.05
CCCOc1ccccc1Nc1nnc(C)c(=O)[nH]1	i	0.74
COc1cccc(CC(=O)OCC(=O)NCC(=O)Nc2cccc(C)c2C)c1	i	2.1
O=C(COC(=O)C1CC2C=CC1C2)Nc1ccc2c(c1)OC(F)(F)O2 (stereo not given)	i	-0.02
CCOC(=O)C1CCN(C(=O)c2cc3ccccc3oc2=O)CC1	i	0.53
Cc1ccc(CN2C(=O)c3ccccc3NC2c2cc(Br)ccc2O)cc1 (stereo not given)	i	-0.23
CCOC(=O)c1ccc(NC(=O)NC2CC3CCC(C2)N3Cc2nnnn2Cc2ccco2)cc1 (stereo not given)	i	-0.83
CC1CN(c2nc3ccccc3nc2SCC(=O)Nc2cccc(C(F)(F)F)c2)CC(C)O1 (stereo not given)	i	-2.1
Clc1ccc2c(c1)C1=C(C(c3ccncc3)O2)C(c2ccc(Br)cc2)n2ncnc2N1 (stereo not given)	i	1
CC(c1ccccc1)N1C(=O)c2ccc(C(=O)NCc3cccnc3)cc2C1=O (stereo not given)	i	1.1
CCN(CC)S(=O)(=O)c1ccc(/C=C/C(=O)Nc2cccc(F)c2)cc1	i	-0.15
CCC(C)(C)NC(=O)Cc1ccccc1OC	i	-0.73

Next part.
Each structure is followed by: KCNQ2 block, KCNQ2 block baseline
CCN(Cc1ccccc1)S(=O)(=O)c1cc(C(=O)NC(C)C2CC3CCC2C3)ccc1OC (stereo not given)
    i, -0.03
Cc1ccc(OCC(=O)NC(=S)Nc2ccc(Br)cn2)cc1C
    i, 1.1
CCOCN(C(=O)Cn1cnc2ccccc21)c1c(C)cccc1CC
    i, -0.02
O=C(CSc1nnc(Cc2ccccc2)o1)NC1CCCCC1
    i, 0.17
Cc1ccc(N2C(=O)Nc3ccccc3S2(=O)=O)cc1Cl
    i, -0.24
O=C1c2cccc(O)c2C(=O)c2c(O)cccc21
    i, 5.7
CNc1nnc(-c2ccncc2)s1
    i, 2.5
O=C(CCc1nnc2n(Cc3ccc(F)cc3)c(=O)c3ccccc3n12)NCCCN1CCOCC1
    i, 0.49
COCC(=O)N(Cc1cc2ccc(C)cc2[nH]c1=O)c1ccc(OC)cc1
    i, -0.33
COc1ccc(NC2CCCN(C(=O)CCCn3cncn3)C2)cc1 (stereo not given)
    i, 0.42
CNC(=O)C(NC(=O)CNC(=O)c1ccc(Cl)cc1)C(C)(C)C (stereo not given)
    i, -1.4
Cc1ccc2nc(-c3ccc(NC(=O)COC(=O)c4ccc([N+](=O)[O-])o4)cc3)sc2c1
    i, 0.31
COC(=O)N/N=C(\C)c1ccccc1OC(F)F
    i, 1.2
Cc1cc2ncn(/N=C/c3ccc([N+](=O)[O-])s3)c2cc1C
    i, 0.76
COc1cc(C(=O)NCC(c2ccccc2)N(C)C)ccc1OCC(=O)N1CCOCC1 (stereo not given)
    i, -0.04
O=C(NC1CC1)C1CCN(S(=O)(=O)c2cc(Cl)ccc2Cl)CC1
    i, 3
Cn1c(C(=O)NCCCN2CCN(c3ccccc3F)CC2)cc2c(=O)[nH]c3ccccc3c21
    i, 2.2
CCN(CC)S(=O)(=O)c1cccc(-c2nnc(SCC(=O)NC)n2CCc2ccccc2)c1
    i, -0.51
O=C(CN1CCC(n2nnc3cc(C(F)(F)F)ccc32)CC1)Nc1ccc2c(c1)CCC2
    i, -0.34
CCOC(=O)c1ccc(S(=O)(=O)N2CCN(C3CCCC3)CC2)cc1
    i, 0.29
COc1ccccc1C(=O)N/N=C(\C)c1ccc(NC(=O)C2CC2)cc1
    i, 2.2
CCCCC(=O)Nc1ccc(N2CCN(S(C)(=O)=O)CC2)cc1
    i, -2
CC1CCN(S(=O)(=O)c2ccc3c4c2CC(=O)N4CC(C)S3)CC1 (stereo not given)
    i, 2.8
O=C(CN1C(=O)NC(Cc2ccccc2)C1=O)Nc1ccccc1 (stereo not given)
    i, -0.97
COc1ccc(NC(=S)N(CCCN2CCCC(C)C2)Cc2cccs2)cc1 (stereo not given)
    i, 0.98
CCOC(=O)c1c(NC(=O)C(=O)N/N=C(\C)c2ccc(OC)cc2)sc2c1CCCCC2
    i, -1.3
CC1CC(C)(C)CC2(C1)NC(=O)N(CC(=O)NCCc1ccc3c(c1)OCCO3)C2=O (stereo not given)
    i, 0.27
O=C(NCCSc1ccccc1)c1ccco1
    i, -0.27
CC(C)Oc1ccc(CNC(=O)c2cc(S(=O)(=O)N3CCOCC3)cn2C)cc1
    i, 0.92
COC(=O)/C(=C\Nc1ccc(Cl)c2ccccc12)c1ncc(C(F)(F)F)cc1Cl
    -8.4*, -0.02*
CCOC(=O)C1=C(C)Nc2ccccc2N=C1NC(=O)c1cccc(S(=O)(=O)N(C)C)c1
    i, -0.29
O=C(NCc1nc(-c2ccc(Cl)cc2)no1)c1ccco1
    i, 0.94
Cc1cc(C)n(/N=C\c2c(O)ccc3ccccc23)c(=O)c1C(N)=O
    i, -1.1
CCCOc1ccc(C(=O)Nc2ccc(C)cc2[N+](=O)[O-])cc1
    i, 0.9
Cc1ccc(C(=O)N/C(=C\C=C\c2ccccc2)C(=O)NCc2ccco2)cc1
    i, -0.21
COc1cc(C(=O)N/C(=C\c2cn(C)c3ccccc23)C(=O)NCCCN2CCOCC2)cc(OC)c1OC
    i, 0.33
O=C(c1cncc(Br)c1)N1CCc2ccccc2C1
    i, -2
CCC(C)(C)NC(=O)C(c1ccc(C)o1)N(C(=O)c1csnn1)c1cccc(F)c1 (stereo not given)
    i, -0.57
CCC(C)NC(=O)CN(c1cc(C)cc(C)c1)S(=O)(=O)c1c(C)[nH]c(=O)[nH]c1=O (stereo not given)
    i, 0.8
Cc1csc(SCC(=O)c2ccc(S(=O)(=O)N3CCOCC3)cc2)n1
    i, -0.08
Cc1ccc(C)c(N2CCN(C(=O)CC3Sc4ccccc4NC3=O)CC2)c1 (stereo not given)
    i, -0.03
COc1ccc(C2=CC(=O)CC(c3ccc(F)cc3)C2)cc1 (stereo not given)
    i, 1.9
Cc1ccc(C)c(NC(=S)NNC(=S)Nc2ccc(C(C)C)cc2)c1
    i, 0.08
Cc1ccc(C)c(NC(=O)c2c(Cl)nc3ccccn23)c1
    i, 1.2
COc1ccccc1NC(=O)c1sc2nc(Cc3ccccc3)cc(C(F)(F)F)c2c1N
    i, 2.9
CC(C)(C)NC(=O)COC(=O)Cc1ccc(Cl)cc1
    i, 0.84
CC(C)c1ccc(OCC(=O)NNC(=S)NC(=O)C2CC2)cc1
    i, -0.35
O=C(Nc1ccccc1)c1cccc(S(=O)(=O)Oc2ccc([N+](=O)[O-])cc2)c1
    i, -0.71
CCC(O)(CCN1CCCCC1)c1ccccc1 (stereo not given)
    i, 0.06
COc1ccc(C(=O)CN2C(=O)NC3(CCc4ccccc43)C2=O)cc1 (stereo not given)
    i, 0.53
O=C(c1ccccc1-c1nc(-c2ccccc2)no1)N1CCOCC1
    i, 0.61
CCOC(=O)Nc1cc(OC)c(OC)cc1Cc1nccc2cc(OC)c(OC)cc12
    i, 0.44
Cc1ccc(S(=O)(=O)N(C)C)cc1NC(=O)CCNC(=O)c1ccccc1Cl
    i, 0.91
